Compound activity (PubChem)
VDR inhibitor = Inhibitors of the vitamin D receptor (VDR): qHTS; VDR-SRC2-3 peptide fluorescence polarization, 2 h; Potency, µM, inactives show max response, negative = inhibition, hits mostly inhibitors; hit rate 0.93% among 400,000; AID 504847, 2011; active means well fitted inhibition curve with a large enough effect; inconclusive means small, poorly fitted or top-dose-only effect, or another doubt; inactive means no such curve, though single readings can be large or run the other way; further: series mostly up to about 120 µM
Target sequence (P11473 whole entry, looked up): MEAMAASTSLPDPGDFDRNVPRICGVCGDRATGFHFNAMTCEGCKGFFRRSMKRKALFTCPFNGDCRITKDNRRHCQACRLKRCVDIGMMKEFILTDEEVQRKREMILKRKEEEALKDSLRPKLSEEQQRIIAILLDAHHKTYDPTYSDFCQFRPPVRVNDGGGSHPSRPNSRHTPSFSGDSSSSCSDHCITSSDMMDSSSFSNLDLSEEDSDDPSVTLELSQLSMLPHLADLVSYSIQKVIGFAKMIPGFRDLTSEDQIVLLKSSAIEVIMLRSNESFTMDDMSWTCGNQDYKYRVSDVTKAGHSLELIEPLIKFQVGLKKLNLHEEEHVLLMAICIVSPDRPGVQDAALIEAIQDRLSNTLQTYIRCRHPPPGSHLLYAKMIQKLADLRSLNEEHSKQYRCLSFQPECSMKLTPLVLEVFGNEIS
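FP read-out; VDR + SRC2-3 coactivator peptide; 23 nl compound by pintool; 2 h RT incubation; reagents held at 4 deg C, protected from light.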
* hit, by the source's call; ? = inconclusive; & = joins results of further samples; [ ] = dose if it differs, or a comment. On the % scale 0 is the no-effect control and ±100 the full control effect; potency means the concentration at half of the fitted maximal effect. Not all compounds are listed. The share of hits here may be higher or lower than overall.

VDR inhibitor | Molecule
-6.4% | CCCc1nc2n[nH]c(N)c2c2c1CCC2
7.9% | CCC(C)Sc1ccc(-c2nc3ccccn3c2NCc2ccccc2)cc1OC (stereo unspecified)
12.4% | Cc1cccc(N2CCN(c3ccc4cc(S(=O)(=O)N5CCC(C)CC5)ccc4n3)CC2)c1C
8.5% | CC/C(C)=C1/NC(=O)NC1=O
5.0% | COC(CNC(=O)C(=O)Nc1ccc2c(c1)N(S(=O)(=O)c1cccs1)CCC2)OC
-3.3% | O=C(NCc1cccnc1)c1ccc(COc2ccccc2Cl)cc1
3.9% | COC(C[C@@H](O)[C@@H](C)[C@H](O)COCc1ccccc1)OC
-16.4% | O=C(NC(=S)Nn1cnnc1)c1ccccc1Cl
-0.4% | CCn1nnnc1SCC(=O)N(C1CCCCC1)C1CCCCC1
-22.3% | Cc1nc2ccc(NC(=O)c3ccco3)cc2s1
4.2% | N#Cc1ccsc1NC(=O)COC(=O)c1ccc(Br)o1
-15.6% | C=CCc1cccc2cc(C(=O)Nc3ccc(NC(C)=O)cc3)c(=O)oc12
2.7% | O=C(COC(=O)c1cc(=O)[nH]c2ccccc12)Nc1ccc(Cl)c(S(=O)(=O)N2CCOCC2)c1
? | Fc1ccc(Br)cc1SCCc1ccncc1
-7.2% | N#Cc1ccc(N2Cc3ccccc3C2=NC(=O)c2cccnc2Cl)cc1
5.8% | C=CCSc1nc2c(c(=O)n(C)c(=O)n2C)n1CC
-8.8% | CC(Oc1ccc(C#N)cc1)C(=O)Nc1ccc(-n2cnnn2)cc1 (stereo unspecified)
-1.4%&-2.3% | CCCCCCCCCCCCCCCCOCC(COP(=O)([O-])OCC[N+](C)(C)C)OC (stereo unspecified)
25.6% | CCc1ccc(CNC(=O)c2ccc(CS(=O)c3ccc(Br)cc3)o2)cc1 (stereo unspecified)
-5.7% | O=C1CCCC2=C1C(c1cccs1)n1nc(SCc3ccccc3F)nc1N2 (stereo unspecified)

Exported in markdown: part of the list above.
| compound | VDR inhibitor |
| --- | --- |
| CCn1nnnc1SCC(=O)N(C1CCCCC1)C1CCCCC1 | -0.4% |
| O=C1CCCC2=C1C(c1cccs1)n1nc(SCc3ccccc3F)nc1N2 (stereo unspecified) | -5.7% |
| COC(CNC(=O)C(=O)Nc1ccc2c(c1)N(S(=O)(=O)c1cccs1)CCC2)OC | 5.0% |

The listing continues.
VDR inhibitor | Molecule
-16.4% | COc1ccc(CNCCC(c2ccc(OC(C)C)cc2)C(C)C)cc1OC (stereo unspecified)
15.1% | OC(CCN1CCOCC1)(c1ccc(Cl)cc1)C1CCCCC1 (stereo unspecified)
-6.5% | O=C(CN(Cc1ccccc1F)C(=O)c1ccco1)NCc1ccc(F)cc1
-17.1% | CCSc1oc(-c2ccco2)nc1S(=O)(=O)c1ccccc1
-9.5% | COc1ccc(CNC(=O)c2cc(-c3ccc(Br)s3)nc3ccccc23)cc1
-9.0% | N#C/C(=C\c1ccc(-c2ccc(C(=O)O)cc2)o1)C(=O)Nc1ccccc1C(=O)O
34.5%[activator] | CCOc1ccccc1N(CC(=O)N1CCOCC1)S(=O)(=O)c1ccc(SC)cc1
-6.8% | CC(C)c1ccc(NC(=O)CN(C)S(=O)(=O)c2ccc3c(c2)n(C)c(=O)c(=O)n3C)cc1
21.2% | C=CCn1c(CC#N)nnc1N1CCOCC1
-1.1% | Cc1cc(C(=O)O[C@H]2[C@H](Cc3ccccc3)NS(=O)(=O)[C@H]3C[C@@H]4C=C[C@]23O4)ccc1[N+](=O)[O-]
-12.9% | O=C(CN1CCOCC1)N1CCN(S(=O)(=O)c2ccccc2)C1c1ccccc1 (stereo unspecified)
-1.3% | Cc1onc(-c2ccccc2Cl)c1C(=O)NNC(=O)C1CCN(Cc2ccccc2)CC1
3.4% | Cc1cc(NC(=O)c2cccc(S(=O)(=O)N3c4ccccc4CC3C)c2)no1 (stereo unspecified)
-6.5% | O=C(Nc1ccc(SC(F)F)cc1)c1cccc2nc3ccccc3nc12
-7.2%&-10.8%&-5.2% | CN1C(C(=O)Nc2ccccn2)=C(O)c2ccccc2S1(=O)=O
-7.2% | COc1ccccc1-c1c(C)nn2c(C(F)(F)F)cc(-c3ccccc3)nc12
8.7% | CCC(C)(O)c1[nH]c2ccc(C#N)cc2c1C (stereo unspecified)
5.8% | O=C(NCc1ccc2c(c1)OCO2)c1ccc2c(c1)N(Cc1cccc(Cl)c1)C(=O)c1ccccc1S2=O (stereo unspecified)
10.3% | Cc1ccc(C)c(CN2C(=O)c3ccccc3Sc3ccc(C(=O)NC4CCCC4)cc32)c1
18.1% | Cn1c(=N)n(CC(O)c2cccc3ccccc23)c2ccccc21 (stereo unspecified)

Sorted by molecular weight (highest first): 3 of the compounds above
VDR inhibitor | Molecule
5.8% | O=C(NCc1ccc2c(c1)OCO2)c1ccc2c(c1)N(Cc1cccc(Cl)c1)C(=O)c1ccccc1S2=O (stereo unspecified)
-17.1% | CCSc1oc(-c2ccco2)nc1S(=O)(=O)c1ccccc1
21.2% | C=CCn1c(CC#N)nnc1N1CCOCC1

Later entries
VDR inhibitor | Molecule
5.4% | CC(=O)OCc1cc2cc(C)ccc2[nH]c1=O
-12.3% | O=C(OCc1csc(-c2ccccc2)n1)C1=NN(c2ccccc2)C(=O)CC1
8.2% | CN(C)c1ccc(C(CNS(=O)(=O)c2ccc([N+](=O)[O-])cc2)N2CCCC2)cc1 (stereo unspecified)
-5.9% | Cc1ccc2nc(NC(=O)c3cc(=O)c4cc(C)c(C)cc4o3)sc2c1
0.0% | COCCCNC(=O)CC(NS(=O)(=O)c1ccc(Cl)cc1)c1ccco1 (stereo unspecified)
-8.8% | Cc1ccc(CC(=O)CCc2ccccc2)cc1
22.9% | Oc1ccccc1/C=N/NC1=NCCCCC1
-0.6% | COc1ccccc1C1c2[nH]c3ccccc3c2CCN1Cc1ccc(NC(C)=O)s1 (stereo unspecified)
7.5% | Cc1ccc(Cn2c(SC(C)C(N)=O)nc3ccccc3c2=O)cc1 (stereo unspecified)
-12.8% | CCc1ccc(C(=O)c2cn(CC(=O)Nc3ccc(F)c(F)c3)c3cc(OC)c(OC)cc3c2=O)cc1
-9.8% | CC1=C(C#N)C(NC(=O)c2ccccc2)(C(F)(F)F)C(=O)N1 (stereo unspecified)
-5.2% | Cc1nn(C)c(C)c1N1C(=O)c2cccc3c(N)ccc(c23)C1=O
1.0% | CCc1ccc(CN(Cc2ccco2)C(=O)c2ccccc2Cl)cc1
7.4% | COc1ccc(CN2CCNC(=O)C2CC(=O)N2CCCN(C(C)=O)CC2)cc1OC (stereo unspecified)
-25.5% | Cc1ccc(C)c(NS(=O)(=O)c2ccc(OCC(=O)NCc3cccnc3)cc2)c1
-0.7% | C/C(=N/NC(=O)c1ccccc1)C1=C(O)CC(C)(C)CC1=O
24.4% | O=C(Nc1ccc(S(=O)(=O)Nc2ccc(F)cc2)cc1)c1ccc(CN2CCOCC2)cc1
11.0% | CCOC(=O)c1ccc(NC(=O)CN(c2ccc(C)cc2)S(=O)(=O)c2c(C)nn(C)c2C)cc1
5.6% | NC(=O)NOCc1cccc(Cl)c1
-5.9% | COc1ccc(C(=O)NCc2ccc3c(c2)cc(C)n3C)cc1

The closing six records of the part above are carried over, then new ones follow.
VDR inhibitor | Molecule
-25.5% | Cc1ccc(C)c(NS(=O)(=O)c2ccc(OCC(=O)NCc3cccnc3)cc2)c1
-0.7% | C/C(=N/NC(=O)c1ccccc1)C1=C(O)CC(C)(C)CC1=O
24.4% | O=C(Nc1ccc(S(=O)(=O)Nc2ccc(F)cc2)cc1)c1ccc(CN2CCOCC2)cc1
11.0% | CCOC(=O)c1ccc(NC(=O)CN(c2ccc(C)cc2)S(=O)(=O)c2c(C)nn(C)c2C)cc1
5.6% | NC(=O)NOCc1cccc(Cl)c1
-5.9% | COc1ccc(C(=O)NCc2ccc3c(c2)cc(C)n3C)cc1
-14.9% | Cc1cc2cc(CNC(=O)c3ccc(C)c([N+](=O)[O-])c3)ccc2[nH]1
-8.2% | O=C(O)CNC(=O)/C(=C\c1cccc([N+](=O)[O-])c1)NC(=O)c1ccco1
1.2% | C=C(C)COc1ccc(-c2n[nH]c(C)c2-c2ccc(Br)cc2)c(O)c1
-5.3% | COc1ccc2cc(C3=CC(=O)CCC3)ccc2c1
-0.3% | CC(C)CCn1nc(C(=O)Nc2nc3c(s2)CCCC3)c2ccccc2c1=O
16.9% | COc1cccc(CNC(=O)CCC2CCCN(C(=O)c3cccnc3SC)C2)c1 (stereo unspecified)
-12.1% | Cc1ccc(S(=O)(=O)N(C)c2ccc(C(=O)NCCc3ccccc3)cc2)cc1
1.7% | Fc1ccc(-c2cc3ncc4c(n3n2)-c2cc(Cl)ccc2OC4)cc1
-23.8% | COc1ccc(/C=C/c2nc(-c3ccccc3O)n[nH]2)cc1OC
6.6% | CCOC(=O)CSc1nc2ccc(NC(=O)COc3ccccc3C)cc2s1
-18.5% | COc1ccc2nc(/N=C(\N)NC(=O)Nc3ccccc3)nc(C)c2c1
2.5% | CCOc1ccc(NC(=S)NC(=O)c2c(Cl)cnn2CC)c([N+](=O)[O-])c1
4.7% | Clc1ccc(CON/C=N/c2ncnc3sccc23)cc1
-4.2% | CCNC(=S)N/N=C/c1cccc(/C=N/NC(=S)NCC)c1
-4.3% | O=C(CCNS(=O)(=O)c1ccccc1)OCC(=O)c1ccc(Cl)cc1
-11.2% | O=C(NNC1CCN(Cc2ccccc2)CC1)c1ccccc1
16.9% | O=C(CCN1CCc2ccccc2C1)Nc1ccc(F)cc1
1.6% | Cc1cc(C)nc(CCNC(=O)c2cc(COc3ccc(F)cc3Cl)on2)n1
-12.4% | COc1cc(NC(=O)c2ccc(C)cc2C)ccc1NC(=O)c1cc2ccccc2o1
7.3% | COc1ccc(-c2noc(CCC(=O)N3CCN(Cc4ccccc4)CC3)n2)cc1
16.8% | CCC(C)(C)c1ccc(OCCN2C(=O)NC(C)(C)C2=O)cc1
-17.7% | CC(=O)Nc1ccc(Nc2nc(C)c([N+](=O)[O-])c(N(C)c3ccccc3)n2)cc1
-27.2% | Nc1c(-c2ccccc2)cnn1-c1ccccc1
4.8% | CCOc1ccc(N2C(=O)CSC2c2ccncc2)cc1 (stereo unspecified)
1.3% | CC(OC(=O)/C=C/c1ccccc1)C(=O)N1CCc2ccccc21 (stereo unspecified)
? | COc1ccc(OC)c2sc(N(CCCN(C)C)C(=O)CCS(=O)(=O)c3ccccc3)nc12
-6.8% | CCc1cc(-c2n[nH]c(=S)n2CC)cs1
2.2% | CC(C)c1ccc(NC(=O)CCNS(=O)(=O)c2ccc3[nH]c(=O)oc3c2)cc1
6.5% | CN(CC(=O)Nc1ccccc1Br)C(=O)COc1ccc2ccccc2c1
0.0% | COc1ccccc1NS(=O)(=O)c1ccc2c(c1)CCN2C(=O)CCC(=O)O
3.5% | Cc1ccc(NC(=S)N2CCC(C(N)=O)(N3CCCCC3)CC2)c(C)c1
-15.2% | CC(C)c1ccc(N(C(=O)c2csnn2)C(C(=O)NC2CCCC2)c2cccnc2)cc1 (stereo unspecified)
-5.7% | CCc1cc2c(NCCN3CCCCC3)ncnc2s1
18.2% | COc1cc(CN2CCc3nc(Nc4ccc5c(c4)OCCO5)ncc3C2)cc(OC)c1OC
-8.3% | Cc1cc(C)c(S(=O)(=O)N2CCCC2=O)c(C)c1N(C)S(C)(=O)=O
-3.4% | CC(C)NC(=O)C1CCN(C(=O)c2cc3sccc3n2Cc2ccc(Cl)cc2)CC1
-3.2% | CCSc1nnc(CSc2ncccn2)n1C
10.9% | Cc1cccc(C)c1OCCn1c(CCNC(=O)C2CCCCC2)nc2ccccc21
-2.6% | CCCCN(C)S(=O)(=O)c1ccc(C(=O)Nc2nnc(C3=COCCO3)o2)cc1
0.6% | Nc1nonc1-n1nncc1-c1ccccc1
13.4% | COc1ccc(Nc2nc(C(=O)N3CCc4cc(OC)c(OC)cc4C3)cs2)cc1
-0.6% | Clc1ccc(Cl)c(-c2nn3c(Cn4cnc5ccccc54)nnc3s2)c1
? | O=C(O)c1ccc(CSCc2ccccc2Cl)o1
-24.9% | COc1cccc(C(=O)NC(c2ccccc2)C2CCCC2)c1 (stereo unspecified)
10.6% | COc1cccc(-n2c(SCC(N)=O)nnc2-c2ccncc2)c1
-12.5% | C=CCN1C(=O)C2C3CC(=O)C(c4ccccc43)C2C1=O (stereo unspecified)
-0.7% | Oc1ccccc1C1NN=C(c2ccccc2)S1 (stereo unspecified)
3.7% | CSc1ccccc1C(=O)Nc1c(C)cccc1C
-9.4% | CC1CCc2cc(F)ccc2N1C(=O)c1cccs1 (stereo unspecified)
13.2% | COc1ccc(OC)c(-c2noc(N3CCN(c4cc(Cl)ccc4C)CC3)n2)c1
9.5% | CC(=O)OCC(OC(C)=O)C(OC(C)=O)C(OC(C)=O)C(=O)Nc1ccc(C)cc1 (stereo unspecified)
-6.9% | COc1cc(C(=O)N/N=C/C2CC=CCC2)cc(OC)c1OC (stereo unspecified)
8.3% | COc1ccc(NC(=S)NC(C)C(c2ccccc2)N2CCOCC2)cc1 (stereo unspecified)
4.0% | CCC1=NN(C(=O)c2ccc(Cl)cc2)C(O)(c2ccccc2)C1 (stereo unspecified)
-6.2% | COc1ccc(S(=O)(=O)Oc2ccc(C(=S)N3CCOCC3)cc2OC)cc1
2.6% | Cc1ccc(Cl)cc1N1CCN(C(=O)c2ccc(NC(=O)c3nsc4ccccc34)cc2)CC1
6.0% | CCOCCCNC(=O)C1(O)c2cc(Br)ccc2NC(=O)N1c1ccc(OCC)cc1 (stereo unspecified)
-4.0% | Cc1ccccc1NS(=O)(=O)c1ccc2[nH]cc(C(=O)NC3CCCCC3)c(=O)c2c1
-7.6% | O=C(CCCl)Nc1cc(SCCO)cc([N+](=O)[O-])c1
